Source: PubChem BioAssay (National Center for Advancing Translational Sciences (NCATS))
TRPV1 PAM – enhances activation of the human vanilloid receptor TRPV1; Q8NER1; TRPV1-expressing cells, Fluo-8 calcium influx, capsaicin EC20 potentiation; host cell line not named in the record; control for the full effect not named in the record; potentiation, % at 8.33 µM; 0.02% of 320,000 active; AID 540277; active means potentiation above 80%; inconclusive means 30% to 80%; inactive means below 30%; also: 0% is about no effect
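Fluo-8 calcium influx in TRPV1-expressing cells, kinetic read (ex 480/em 520 nm). Compound added and read 3 min for agonist activity, followed by capsaicin at EC20 final and 2 min further read for enhancement.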
TRPML1 blocker – inhibitors of human TRPML1 channel | activity change, negative = inhibition, % (no concentration beside the values) | TRPML1-inducible cells, Ca2+ dye fluorescence, FDSS; hits give low values; inhibition of EC80 agonist-evoked calcium signal | Q9GZU1 | 0.02% of 390,000 active | AID 624415; in the data active means activity change below about -50%; inconclusive means about -30% to -50%; inactive means above about -30%;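 also: stimulus is agonist 54-4 at its EC80 concentration; % is scaled to controls: 0 for no effect and ±100 for the full control effect; compound concentration not given in the record; the text of the record puts the active cut at -80%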
Target sequence (Q9GZU1 whole entry, looked up): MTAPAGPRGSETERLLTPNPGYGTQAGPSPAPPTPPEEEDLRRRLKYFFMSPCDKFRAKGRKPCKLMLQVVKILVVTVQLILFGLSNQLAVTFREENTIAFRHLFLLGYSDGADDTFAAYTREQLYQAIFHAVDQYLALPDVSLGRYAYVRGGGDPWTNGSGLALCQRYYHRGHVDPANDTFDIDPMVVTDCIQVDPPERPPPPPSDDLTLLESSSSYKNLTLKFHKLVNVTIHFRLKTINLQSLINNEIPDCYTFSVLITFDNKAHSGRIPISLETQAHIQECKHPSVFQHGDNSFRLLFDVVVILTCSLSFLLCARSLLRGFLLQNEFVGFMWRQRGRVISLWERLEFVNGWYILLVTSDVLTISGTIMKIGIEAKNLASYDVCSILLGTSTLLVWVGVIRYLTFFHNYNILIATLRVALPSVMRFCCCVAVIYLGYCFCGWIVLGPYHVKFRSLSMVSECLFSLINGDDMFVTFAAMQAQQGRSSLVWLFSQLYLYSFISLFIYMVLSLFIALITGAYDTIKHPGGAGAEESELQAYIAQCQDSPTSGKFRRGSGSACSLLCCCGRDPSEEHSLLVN
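Calcium fluorescence in TRPML1-DL cells induced overnight with Tet: a 110 s read after compound pin addition, then a 110 s antagonist read after challenge with 54-4 at 4 uM final (EC80).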
ClpP mod – qHTS Assay for Activators of ClpP. purified B. subtilis ClpP, FRET peptide cleavage, 20 min. Potency, µM (highest dose often 57.5 µM), for the others: at the top dose activity change, negative = active. ATP-dependent Clp protease proteolytic subunit (Bacillus subtilis (strain 168)), P80244. 1.9% of 340,000 active; active = well fitted falling curve with a large enough effect; inconclusive = small, poorly fitted or top-dose-only effect; inactive = no such curve, though single readings can be large or run the other way; also: potency is read from the fitted curve at half-maximal effect; the source files actives as falling curves though it sought activators and does not explain the sign; nearly all actives have a fitted effect of over 65% in size; many hits overshoot -100%
Target sequence (P80244 whole entry, looked up): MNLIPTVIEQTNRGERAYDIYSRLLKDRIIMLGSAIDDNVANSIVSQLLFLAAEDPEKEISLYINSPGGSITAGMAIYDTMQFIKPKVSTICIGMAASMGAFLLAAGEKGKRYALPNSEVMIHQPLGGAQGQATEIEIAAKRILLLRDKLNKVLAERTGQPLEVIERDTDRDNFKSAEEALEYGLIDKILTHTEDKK
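FRET quenching reversal measured ClpP activation: 10 microg/mL B. subtilis ClpP at pH 8 with the FRET-FV decapeptide, read at 430 nm after 320 nm excitation. The 20-min minus 0-min signal was scaled between DMSO/no-enzyme wells and ADEP (5.8 microM final).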
gsp ag – gsp mutant agonism; Potency, µM (doses to about 76.9 µM), inactives show at the top dose activation (cAMP increase), most hits filed as activators; gsp mutant cells, cAMP HTRF, 30 min; control for the full effect not named in the record; 0.13% of 340,000 active; active = well fitted activation curve with a large enough effect; inconclusive = small, poorly fitted or top-dose-only effect, or another doubt; inactive = no such curve, though single readings can be large or run the other way; cell line not stated here;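 also: phosphodiesterase inhibitor Ro 20-1724 added with compounds to block cAMP breakdown; potency is read from the fitted curve at half-maximal effect; nearly all actives have a fitted effect of over 60% in size; about a fifth of the inactives were tested at one dose only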
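Cells in DMEM/10% FBS with G418 were pretreated with compounds in DMSO plus […] (300 uM stock) for 30 min at 37C. cAMP was measured by HTRF (cAMP-d2 plus anti-cAMP antibody-K) after 30 min at room temperature.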
gsp antagonist – gsp mutant antagonism; AID 624288; 0.4% of 340,000 active; Potency, µM (series often up to 76.9 µM), inactives show top-dose activity change, negative = inhibition, hits mostly inhibitors; gsp-mutant cells, cAMP HTRF, 30 min; control for the full effect not named in the record; active = falling curve of any shape with a large fitted effect; inconclusive = falling curve, mostly with a smaller effect; inactive = flat or rising curve; cell line not stated here;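 also: intracellular cAMP measured with PDE inhibitor Ro 20-1724 present during compound exposure; potency is read from the fitted curve at half-maximal effect; % is scaled to controls: 0 for no effect and ±100 for the full control effect; nearly all actives have a fitted effect of over 65% in size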
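Cells, 2000/well, grown 16–24 h in DMEM 10% FBS with 0.5 mg/ml G418, then compounds plus […] (300 uM addition stock), 30 min at 37C. cAMP read by HTRF (cAMP-d2 and anti-cAMP antibody-K in lysis buffer) after 30 min RT.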
Menin MLL FP FL – displaces fluorescein MLL peptide from human menin | Fluorescence polarization, fluorescein-MLL peptide displacement from menin | FP activity change, % at 61.4 µM | 290,000 tested, under 10 active; inconclusive = falling polarisation curve, or a change in total fluorescence; inactive = total fluorescence flat and polarisation flat or rising; no compound was filed as active; the % refers to the polarisation; negative = inhibition;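 also: % of control where 0% means no effect; inhibitors lower the polarisation; unlabelled MLL peptide was the positive control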
Sfp inh – Sfp phosphopantetheinyl transferase inhibition. Q9F4F7. Biochemical Sfp PPTase activity, qHTS. Potency, µM, without a hit: max response, negative = inhibition, usual class: inhibitors. 3.5% of 310,000 active. AID 1490; active = well fitted inhibition curve with a large enough effect; inconclusive = small, poorly fitted or top-dose-only effect, or another doubt; inactive = no such curve, though single readings can be large or run the other way;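 also: the enzyme is Sfp with the accession as filed and its product quenches rhodamine fluorescence; potency is read from the fitted curve at half-maximal effect; 0% = enzyme reaction without inhibitor and -100% = no enzyme wells; top concentration of the series not given in the record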
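Reaction rates are the 30-min fluorescence difference (ex 525, em 598 nm) in wells containing 15 nM Sfp, 5 uM rhodamine-CoA and 12.5 uM BHQ-2-YbbR at pH 7.6 with 10 mM MgCl2.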
* = called active by the depositor; ? = inconclusive; · = no result given; & = joins results of further samples; [ ] = another dose, or the depositor's remark.

Order of results: TRPV1 PAM, TRPML1 blocker, ClpP mod, gsp ag, gsp antagonist, Menin MLL FP FL, Sfp inh
> COc1ccc(C)cc1NC(=O)CNc1ccc(C(C)=O)cc1
  0, -4, -4.7%, 0%, 3%, 4.1, -1%
> Cc1nnc(NC(=O)NC(C)N2C(=O)C3C4C=CC(C4)C3C2=O)s1 (centres undefined)
  23, -8&6, -0.2%, -1%&32%, 8%&5%, 2.5, 16%
> CC(C)CC(=O)Nc1sc2c(c1C(=O)O)CCCCC2
  -9, 3, -1.1%, 9%, -11%, -2.1, 25%
> CC(C)c1ccc(Oc2cccc(C(=O)/C(C#N)=C/N(C)C)c2)cc1
  12, -2, -1.2%, -6%, -33%, 0.0, 2%
> CC1CN(C(=O)/C=C/c2ccccc2Cl)CC(C)O1 (centres undefined)
  -12, -7, -0.9%, -1%, 7%, 3.7, -2%
> CC(C)C(NS(=O)(=O)c1cccc2nsnc12)C(=O)N1CCCCC1 (centres undefined)
  -8, -4, -0.3%, 8%, 14%, ·, 5%
> CCN(CC)c1ccc(S(=O)(=O)N2CCOCC2)cc1NC(=O)CNCc1ccccc1
  ·, 12, -2.0%, 1%, -24%, 4.4, 35µM*
> N#CCCn1nc(-c2ccccc2)cc1Nc1ccccc1NC(=O)C(F)(F)F
  -8, 31, ?, 10%, -9%, -1.3, 13%
> CC(=O)CCc1ccc(OCC(=O)Nc2cccc(S(=O)(=O)N(C)c3ccccc3)c2)cc1
  13, -1, 0.9%, -4%[15.4 µM], -25%, ·, ·
> O=C(Cn1c2ccccc2c2nc3n(c(=O)c21)CCS3)Nc1ccccc1C(F)(F)F
  -6, -4, ·, -25%[15.4 µM], -5%, 5.4, -18%
> CCOC(=O)C1CCN(C(=O)Nc2ccccc2Cl)CC1
  6, -5, 0.4%, -1%, -2%, 2.1, 8%
> CC(=O)C1=C(O)CC(C)(C)CC1=NCCc1nc2ccccc2[nH]1
  -5, 15, -2.6%, -10%[15.4 µM], -13%, -3.6, 16%
> CCCOc1ccc(NC(=O)CCC(=O)NC(C)c2ccccc2)cc1 (centres undefined)
  0, -20, 0.0%, -9%, 7%, -11, 1%
> c1nc(COc2nsnc2N2CCOCC2)cs1
  -10, -20, -2.2%, -1%, 10%, 0.3, 0%
> COCc1nnc(NC(=O)C2CC(=O)N(C3CCCC3)C2)s1 (centres undefined)
  -1, 18, ·, -18%, -2%, 1.3, ?
> O=C(O)CSc1ccc(NC(=O)Nc2ccccc2F)cc1
  -3, -12, -3.0%, -61%[inhibitor], 3%, 4.4, 6%
> CC(C)c1ccc(NC(=O)CCN2C(=O)c3ccc([N+](=O)[O-])cc3C2=O)cc1
  -4, 4, -0.3%, 2%, 4%, 1.3, -1%
> O=C(NOCc1ccccc1)c1coc(-c2ccccc2)n1
  ·, 4, 1.6%, ·, -8%, ·, ·
> O=C(COc1ccc(Cl)cc1)Nc1ncccn1
  -7, 2, 0.5%, 29%, 9%, -1.2, 8%
> CCOC(=O)/C(C#N)=C1/SC(C)C(=O)N1c1ccc(Br)cc1 (centres undefined)
  24, -1, -1.1%, 21%, -9%, 4.0, 6%
> COc1ccc(-c2nn(Cc3ccccc3)cc2C(=O)N2CCN(c3ccccn3)CC2)cc1OC
  -10, 3, ?, 4%, -8%, ·, ·
> Cc1nc2ccccc2c(=O)n1NS(C)(=O)=O
  -2, 10, -1.5%, ?, 4%, 1.4, -2%
> Cc1ccc(S(=O)(=O)N(Cc2ccc([N+](=O)[O-])cc2)C(=O)N2CCN(C)CC2)cc1
  8, -3, -0.4%, 13%, 1%, ·, ·
> CC(=O)Nc1ccc(OCC(=O)c2ccc(C)cc2C)cc1
  3, 1, 2.0%, -43%[inhibitor], 4%, 1.3, -3%
> CCCCc1c(C(=O)O)cc(OC)cc1C(=O)O
  -4, 6, 0.0%, -5%, 14%, -0.7, 6%
> COc1ccnc2c1c(=O)n(Cc1ccccc1Cl)c(=O)n2C
  -4, 8, -5.7%, -8%, -7%, 4.3, 3%
> O=C(CN1C(=O)NC2(CCCCC2)C1=O)NCCC1=CCCCC1
  -9, -3, -5.0%, -63%[inhibitor], 4%, -2.9, 7%
> CCOc1cccc(CN2CCCC(C(=O)c3cc(Cl)ccc3OC)C2)c1O (centres undefined)
  -11, 33, ·, -30%, -22%, -0.6, -2%
> O=C(C[n+]1cccc(NC(=O)c2ccccc2)c1)c1cccc([N+](=O)[O-])c1
  -9, -2, ·, -4%, 8%, -9.7, -13%
> C#Cc1ccc([C@@H]2C=C(C(=O)O)O[C@H](OCc3ccc(CO)cc3)C2)cc1
  -17, 3, -8.7%, ·, 7%, -8.2, -9%
> CCOc1ccc(C(C)=O)cc1COC(=O)CCc1cc(OC)c(OC)c(OC)c1
  -4, -5, ·, ?, -10%, -5.1, 3%
> CCOC(=O)Cc1c(C)nc(-c2ccccc2)[nH]c1=O
  -6, -13, -4.0%, -28%, -1%, -0.9, -8%
> Cc1cc(C(F)(F)F)nn1CCCNC(=O)c1cnccn1
  -3, 33, -1.6%, -4%, 9%, 0.9, 13%
> CC(=O)c1cccc(NC(=O)c2ccc3c(c2)CCN3S(=O)(=O)c2ccccc2)c1
  1, -10&29, -2.2%&-5.1%, 0%, -2%, -1.3, -6%
> CC1(c2nnc(-c3ccncc3)o2)CC(c2ccc(F)cc2)=NO1 (centres undefined)
  ?, -5, -29%, -233%[inhibitor], 4%, -0.1, 23%
> O=C(NC1CC2CCCC(C1)N2Cc1cccs1)N1CCOCC1 (centres undefined)
  -20, -7, 2.1%, 0%, 19%, -1.0, 14%
> O=C(CCc1nnc2ccc(NCc3ccco3)nn12)Nc1ccc(F)cc1F
  -5, 2, 1.2%, 1%, -4%, ·, 9%
> CC(C)(C)c1ccc(N2C(=O)CC(c3ccccc3)C2=O)cc1 (centres undefined)
  -1, 22, 1.2%, -1%, 10%, 1.7, 11%
> N#C/C(C(=O)N1CCOCC1)=c1/s/c(=C\c2ccccn2)c(=O)n1-c1ccccc1
  -6, ?, ·, 5%[15.4 µM], -5%, -12, -2%
> CN1CCc2nc(SCc3ccc(Cl)cc3)c(C#N)c(-c3cccs3)c2C1
  ·, 21, 1.2%, 29%, 7%, ·, ·
> O=C(Nc1cccc2cccnc12)c1cccc(N2C(=O)CCC2=O)c1
  ?, -5, 0.2%, -35%, -6%, 0.9, 13%
> CC1CN(S(=O)(=O)c2ccc(C(=O)Nc3ccccc3F)cc2)CC(C)O1 (centres undefined)
  ·, -6, -1.5%, ?, 6%, ·, ·
> CCc1nc2ccccc2c(C(=O)NCc2ccc(OC)cc2)c1C
  0, -6, ·, 7%, -4%, 2.4, 17%
> Cc1ccc(OCCCC(=O)NC(C)c2ccccc2)c(C)c1 (centres undefined)
  -5, -1, -0.9%, -3%, -3%, 4.0, -10%
> C/C(=N\NC(=O)c1ccccn1)C12CC3CC(CC(C3)C1)C2
  -27, 0, -0.5%, -4%, -2%, 0.9, 6%
> CC(C)C(C(=O)NCC1CCCO1)N(C(=O)CNS(=O)(=O)c1ccc(F)cc1)C1CCCCC1 (centres undefined)
  12, -8, ·, 2%[15.4 µM], -24%, ·, 2%
> Cc1ccccc1NC(=S)N(CCN1CCCCC1)Cc1ccco1
  -3, 8, ·, -8%, 2%, 0.2, -11%
> C=CCNC(=O)COC(=O)COc1ccc(Cl)cc1
  19, -8, ·, -10%, -12%, 2.9, 17%
> CC1CCCC(C)N1C(=O)COC(=O)c1cc([N+](=O)[O-])ccc1N1CCOCC1 (centres undefined)
  4, 42, 2.9%, -1%, 6%, ·, ·
> O=c1c2c(-c3cccc([N+](=O)[O-])c3)ccnc2[nH]n1-c1ccccc1
  0, 16, -7.2%, ?, -14%, -5.1, 5%
> COc1ccc(C(=O)NC(=S)Nc2cccc(Cl)c2N2CCOCC2)cc1[N+](=O)[O-]
  ?, -5, -0.2%, -34%[inhibitor], -7%, 7.0, -7%
> COc1ccc(CCC(=O)Nc2cc3c4c(c2)CC(=O)N4CCC3)cc1
  10, 43, 1.1%, -40%, -10%, ·, ·
> CCOC(=O)N/N=C\c1ccc(OC(=O)c2ccc3c(c2)OCO3)cc1
  0, 0, ·, 6%, 5%, 0.6, 1%
> CC(C)C[C@@H](CO)N1CCNCCC1=O
  17, 25, -1.4%&-4.5%, -51%[inhibitor], 6%, -2.3, 23%
> O=S(=O)(c1cc(F)cc(F)c1)N1CCN(c2ncccn2)CC1
  5, 15, -6.5%, -13%, 11%, -0.4, 10%
> CCOC(=O)CNC(=O)Nc1cccc(Cl)c1C
  1, 3, 1.7%, -7%, 3%, 2.2, 18%
> N#Cc1ccc(CN2CCN(C(=O)c3cc(Cl)c4c(c3)OCCO4)CC2)cc1
  -7, 5, 0.0%, 7%, -23%, ·, ·
> C=CCNS(=O)(=O)c1ccc(C(=O)OCc2cc(=O)oc3cc(OC)ccc23)cc1
  10, -1, ·, 7%[15.4 µM], -6%, -1.6, -8%
> Cc1ccc(NNC(=O)Nc2ccc(Cl)cc2)nn1
  10, -10, ·, -2%, 5%, 1.7, 8.9µM*
> O=C(CN1C2CCC1CC(NC(=O)Nc1ccccc1)C2)NCc1ccco1 (centres undefined)
  -1, -3, -2.5%, -34%, 9%, 1.5, 23%

Carrying on:
Order of results: TRPV1 PAM, TRPML1 blocker, ClpP mod, gsp ag, gsp antagonist, Menin MLL FP FL, Sfp inh
> CC(C)CN(C(=O)CN1CCN(c2ccccc2O)CC1)c1c(N)n(CC(C)C)c(=O)[nH]c1=O
  -6, -5, -2.0%, 8%, -2%, -2.5, -1%
> COc1ccc(/C=N\NC(=O)c2ccccc2OC)cc1COc1c(F)c(F)c(F)c(F)c1F
  2, 31, -13%, -6%[15.4 µM], 40µM*, 0.3, -4%
> CC(=O)c1cc2c(cc1NS(=O)(=O)c1ccc(C)cc1)OCO2
  2, -6, -2.7%, -41%[inhibitor], -1%, 6.4, 7%
> COc1cc(C(=O)O[C@H]2C/C(C)=C/CC[C@]3(C)O[C@@H]3C(O)C2C(C)C)cc(OC)c1OC (some centres undefined)
  1, 20, ·, 0%, -8%, -5.1, 3%
> OCC[C@@H]1C[C@H](O)[C@@H](O)[C@@]2(CCCO2)O1
  ·, 6, 0.9%, ·, 12%, ·, ·
